# Lassa entry inh = qHTS for Inhibitors of binding or entry into cells for Lassa Virus | hit rate 1.2% among 300,000 | Lassa virus pseudotype entry inhibition, cell reporter; control for the full effect not named in the record | Potency, µM (top dose mostly 37.9 µM), without a hit: at the highest dose activity change, negative = inhibition, actives largely listed as inhibitors | AID 540256, 2011; active means well fitted inhibition curve with a large enough effect; inconclusive means small, poorly fitted or top-dose-only effect, or effect the other way; inactive means flat fitted curve, though single readings scatter; tested in HEK293 cells; further: on the % scale 0 is the no-effect control and ±100 the full control effect; nearly all actives have a fitted effect of over 50% in size; luciferase read-out
# SARS PLP yeast = qHTS of Yeast-based Assay for SARS-CoV PLP; hit rate 0.19% among 330,000; S. cerevisiae expressing SARS-CoV PLpro, growth rescue; control for the full effect not named in the record; AID 485353, 2010; Potency, µM (doses to about 32.9 µM), without a hit: top-dose activity, positive = growth rescue; further: 0% is about no effect; nearly all actives have a fitted effect of over 55% in size; growth read by luminescence after 48 h
# NS1 inh = qHTS Assay for Inhibitors of Influenza NS1 Protein Function; S. cerevisiae slowed by influenza A NS1, growth recovery by OD600; Potency, µM (titrated, usually from 46.1 µM), for inactives: at the highest dose activity, positive = more growth; hit rate 0.4% among 270,000; AID 2326, 2010; further: actives are rising curves; nearly all actives have a fitted effect of over 50% in size
#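 Recovery from NS1-induced slow growth read by OD600 in budding yeast switched to galactose assay medium (pH 6.0, -URA) at 1:100 dilution. Compound 23 nl per well; the matching strain lacking NS1 serves as control.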
# RE007 growth inh = qHTS Assay for Inhibitors of the HIV-1 protein Vpr. S. pombe RE007 Vpr strain, BacTiter-Glo ATP luminescence, 24 h; control for the full effect not named in the record. Potency, µM (highest dose often 92.2 µM), for inactives: at the highest dose activity change, negative = less growth. hit rate 0.21% among 360,000. AID 651644, 2012; active = well fitted falling curve with a large enough effect; inconclusive = small, poorly fitted or top-dose-only effect; inactive = no such curve, though single readings can be large or run the other way;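 further: on the % scale 0 is the no-effect control and ±100 the full control effect; nearly all actives have a fitted effect of over 50% in size; the assay follows cell death caused by Vpr and the record does not say whether a fall means rescue or toxicity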
#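 Fission yeast RE007 carrying one integrated HIV-1 vpr copy, seeded at OD 0.01 in PMG+AL medium with 23 nL pinned compound. Grown 24 h at 30 degrees; viability read by BacTiter-Glo luminescence after 5 min.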
# Cruzain noTriton = qHTS Assay for Promiscuous and Specific Inhibitors of Cruzain (without detergent). hit rate 2.3% among 200,000. Potency, µM, for the others: max response, negative = inhibition, actives largely listed as inhibitors. Cruzipain (Trypanosoma cruzi), P25779. purified cruzain, Z-FR-AMC fluorescence, no detergent; active means well fitted curve in the direction sought with a large enough effect; inconclusive means small, poorly fitted or top-dose-only effect, or another doubt; inactive means no such curve, though single readings can be large; an effect the other way counts as inactive or inconclusive;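 further: plate controls were enzyme without inhibitor for no effect and buffer without enzyme for full effect; nearly all actives have a fitted effect of over 40% in size; top concentration of the series not given in the record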
# Target sequence (P25779 123-467 limits assumed): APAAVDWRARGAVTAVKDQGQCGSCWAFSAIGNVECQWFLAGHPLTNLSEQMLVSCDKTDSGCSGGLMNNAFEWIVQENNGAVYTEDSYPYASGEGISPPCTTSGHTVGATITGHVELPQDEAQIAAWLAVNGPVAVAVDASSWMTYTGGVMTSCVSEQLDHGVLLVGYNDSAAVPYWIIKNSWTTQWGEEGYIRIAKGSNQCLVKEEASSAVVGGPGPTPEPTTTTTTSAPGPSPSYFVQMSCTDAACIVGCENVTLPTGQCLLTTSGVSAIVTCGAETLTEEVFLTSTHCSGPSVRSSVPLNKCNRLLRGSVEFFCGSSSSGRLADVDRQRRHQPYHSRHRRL
#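 Detergent-free condition (0.00005% Triton X-100) in acetate buffer pH 5.5 with DTT. 1.5 nM enzyme and compound were pre-mixed 15 min, then 2 uM Z-FR-AMC substrate added; reaction progress from fluorescence change between first and third reads (60 s).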
# MARV entry inh = qHTS for inhibitors of binding or entry into cells for Marburg Virus. Potency, µM (top dose mostly 37.8 µM), inactives show at the highest dose activity change, negative = inhibition, most hits filed as inhibitors. hit rate 1.8% among 300,000. Marburg virus pseudotyped entry inhibition, cell reporter; control for the full effect not named in the record; about a third of the inactives were read at about 46 µM. AID 540276, 2011; active = well fitted inhibition curve with a large enough effect; inconclusive = small, poorly fitted or top-dose-only effect, or effect the other way; inactive = flat fitted curve, though single readings scatter; tested in HEK293 cells; about a fifth of its hits are not listed in these tables; further: on the % scale 0 is the no-effect control and ±100 the full control effect; luciferase read-out
# 2A StopGo = High Throughput Screening for Foot and Mouth Disease Virus Antivirals; AID 1159524, 2015; human cells with a luciferase reporter of 2A StopGo recoding; control for the full effect not named in the record; hit rate 1.2% among 410,000; Potency, µM (series often up to 57.9 µM), inactives show at the highest dose signal change, negative = less light; active = well fitted falling curve with a large enough effect; inconclusive = small, poorly fitted or top-dose-only effect; inactive = no such curve, though single readings can be large or run the other way; tested in HEK293T cells; further: on the % scale 0 is the no-effect control and ±100 the full control effect; nearly all actives have a fitted effect of over 45% in size; luciferase light after 4 h
# Cruzain Triton = qHTS Assay for Promiscuous and Specific Inhibitors of Cruzain (with detergent); Cruzipain (Trypanosoma cruzi), P25779; purified cruzain, Z-FR-AMC fluorescence, 0.01% Triton; Potency, µM, without a hit: max response, negative = inhibition, hits mostly inhibitors; hit rate 0.43% among 200,000; AID 1478, 2009; active means well fitted curve in the direction sought with a large enough effect; inconclusive means small, poorly fitted or top-dose-only effect, or another doubt; inactive means no such curve, though single readings can be large; an effect the other way counts as inactive or inconclusive;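 further: plate controls were neutral wells for no effect and buffer without enzyme for full effect; nearly all actives have a fitted effect of over 40% in size; top concentration of the series not given in the record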
#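 Sodium acetate buffer (100 mM, pH 5.5) containing 5 mM DTT and 0.01% Triton X-100 hosted 1.5 nM cruzain and test compound for 15 min at room temperature. Cleavage of 2 uM Z-FR-AMC was then tracked by fluorescence.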
# * hit, by the source's call; ? = inconclusive; . = not tested or not shown; [ ] = another dose, or the depositor's remark. Unless noted, the call rests on the fitted dose curve; in most records, active means well fitted rising curve with a large enough effect; inconclusive means small, poorly fitted or top-dose-only effect; inactive means no such curve, though single readings can be large or run the other way. Potency means the concentration at half of the fitted maximal effect.
molecule	Lassa entry inh	SARS PLP yeast	NS1 inh	RE007 growth inh	Cruzain noTriton	MARV entry inh	2A StopGo	Cruzain Triton
CCN(CC)C(=O)CSc1nc(O)c(Cc2ccc(OC)cc2)c(=O)[nH]1	.	6%	21%	6%	.	.	-24%	.
Cc1c(C(=O)N2CCCCCC2)c(S(=O)(=O)NCc2ccc(Br)cc2)c(C)n1C	0%[46.1 µM]	.	.	.	17%	.	67%[activator]	-1.4%
O=c1cc(O)c2sc(Nc3ccc(F)cc3)nc2[nH]1	?	-4%	13µM*	23%	?	-8%	-4%	-9.2%
CCCC(C)c1nc(C(N)=O)c2[nH]c(=O)n(-c3ccc(OC)c(OC)c3)c2n1 (stereo not drawn)	.	26%	15%	-2%	.	.	-29%	.
O=C(NCCNC(=O)Oc1cccc2ccccc12)Oc1cccc2ccccc12	?	.	.	-22%	.	-1%	30%	.
C=CCCCCCCCCC(=O)Nc1c[nH]c(=O)[nH]c1=O	2%	0%	-1%	6%	0%	10%	.	-0.6%
CCOC(=O)c1ccc(S(=O)(=O)NCCNCc2ccccc2)cc1	-29%[46.1 µM]	-1%	.	5%	.	?	-15%	.
CCN(CC)CC(=O)Nc1ccc([N+](=O)[O-])cc1	8%[46.1 µM]	1%	?	-12%	.	-5%[46.1 µM]	-16%	.
CNC(=O)Nc1nnc(C(C)(C)C)s1	6%	10%	4%	-10%	1%	4%[46.1 µM]	20%	0.7%
CC(=O)Nc1ccc(NC(=O)CSc2nnnn2-c2ccc(F)cc2)cc1	-20%	-1%	3%	0%	.	-17%	-1%	.
CC(C)C(=O)Nc1ccc(-c2csc(-c3ccccc3)n2)cc1	?	0%	5%	5%	?	22%	19%	3.7%
CC(C)C(NC(=O)c1ccc(C(C)(C)C)cc1)C(=O)NCCc1ccccn1 (stereo not drawn)	-5%[46.1 µM]	1%	.	4%	.	-24%[46.1 µM]	-14%	.
Cc1nn(-c2ccccc2)c2c1C(=O)N(c1ccccc1)C(=O)C(C)(C)C2	2%	?	12%	15%	13%	11%[46.1 µM]	-12%	4.3%
O=C(O)c1cccc(S(=O)(=O)Nc2ccc(N3CCCCC3)cc2)c1	-26%	10%	.	18%	.	-10%	9%	.
CCc1ccc(C2(O)CC(C(F)(F)F)=NN2C(=O)Cc2ccc([N+](=O)[O-])cc2)cc1 (stereo not drawn)	-1%	-14%	2%	2%	-6%	-8%	42%[activator]	-9.4%
COc1ccc(CN2C(=O)c3cccc4cccc2c34)cc1F	-17%[46.1 µM]	-9%	-27%	-3%	.	?	45%[activator]	.
COc1ccccc1/C=C/C(=O)NCC(=O)N/N=C/c1cccnc1	13%	10%	8%	-3%	2%	9%	-1%	-2.5%
CC(=O)c1cccc(CN2CCN(Cc3ccccc3)C(CCO)C2)c1 (stereo not drawn)	20%[46.1 µM]	0%	-2%	-1%	.	-2%[46.1 µM]	0%	.
CCOC(=O)N1CCC(Nc2ccc3nnc(-c4ccccc4)n3n2)CC1	.	3%	-52%	6%	?	.	?	-2.5%
COCCCNC(=S)N1CCN(C(=O)C(=O)Nc2ccc(C(=O)OC)cc2)CC1	19%	10%	-4%	-3%	7%	?	0%	-1.6%
CCn1cc(C(=O)NCCc2ccc(OC)c(OC)c2)c(=O)c2cc(S(=O)(=O)N3CCCCCC3)ccc21	9%[46.1 µM]	.	.	.	?	0%[46.1 µM]	-21%	-2.6%
Cc1cccc(CN2CCc3c([nH]c4ccccc34)C2CC(C)C)n1 (stereo not drawn)	-29%[46.1 µM]	2%	5%	-6%	.	?	-24%	.
Cn1c(=O)n(C)c2cc(/C=C(/C#N)C(=O)NCc3ccco3)ccc21	17%	1%	-3%	3%	.	?	-7%	.
CN(C)C(=O)NC(O)C(Cl)(Cl)Cl (stereo not drawn)	1%	8%	-4%	-7%	3%	5%	.	3.8%
O=C(Nc1cccc(/C=C/c2ccccn2)c1)c1ccc(-n2cncn2)cc1	?	-12%	.	0%	.	?	-10%	.
O=C(O)COc1ccccc1/C=N/NC(=O)c1cc(-c2ccc(F)cc2)nc2ccccc12	-19%	10%	.	-16%	.	-24%[46.1 µM]	3%	.
Cc1cc(C(=O)N2CCC(C(=O)O)CC2)c(C)o1	-4%	0%	-3%	-3%	.	3%	6%	.
COC(=O)NNC(=S)Nc1cc(OC)ccc1OC	16%[14.3 µM]	-11%	-2%	1%	7%	4%	-22%	1.4%
COc1ccc(-c2cn3cccnc3n2)cc1NC(=O)Cc1ccccc1	-2%[46.1 µM]	.	.	.	0%	.	?	-1.8%
CN1CCN(c2c(/C=N/O)c3ccccc3n2C)CC1	17%[46.1 µM]	1%	0%	3%	.	9%[46.1 µM]	-10%	.
O=C(COC(=O)/C=C/c1ccc(OC(F)F)cc1)NC1CCCCCC1	19%	18%	.	0%	.	20%	-8%	.
O=C(Cn1cccc1C(=O)c1ccccc1)NCCCN1CCOCC1	12%	-3%	0%	1%	-4%	5%	-4%	8.8%
COc1cc(C(=O)OCC(=O)NCc2ccc(F)cc2)cc(NC(=O)c2cccs2)c1OC	-4%	1%	-6%	2%	?	-2%	-18%	-4.0%
COc1ccc(C(=O)NCc2nnc(SCC(=O)c3ccc(F)cc3)n2C)cc1OC	3%	1%	.	-15%	.	8%	-20%	.
CN(CC(=O)Nn1cnnc1)S(=O)(=O)c1ccccc1	-7%	1%	3%	9%	-15%	5%	15%	1.7%
CCOC(=O)c1cn(-c2ccccc2)nc1-c1ccncc1	18%	-2%	-19%	-16%	6%	-19%	-24%	1.6%
Cc1c(NC(=O)C(C)OC(=O)c2ccc(NC(=O)CC#N)cc2)c(=O)n(-c2ccccc2)n1C (stereo not drawn)	8%	-2%	.	1%	.	9%[46.1 µM]	-19%	.
Cc1nnc2c(N3CCN(c4ccccc4F)CC3)nc3ccccc3n12	?	.	.	.	10%	.	-27%	-11%
O=C(NC(=S)Nc1ccc(N2CCOCC2)cc1)c1cccc([N+](=O)[O-])c1	5%	8%	15%	.	-18%	4%	-24%	-7.1%
COc1ccc(OC)c(CNC(=O)Cc2c(C(=O)O)[nH]c3ccc(Cl)cc23)c1	5%	0%	.	19%	.	-10%[46.1 µM]	-3%	.
CCN(Cc1ccccc1)S(=O)(=O)c1ccc(C(=O)N(CCCN(C)C)c2nc3ccc(F)cc3s2)cc1	?	5%	4%	1%	.	?	12%	.
CN1CCN(C(=O)C2=C[C@@H](c3ccc(C(F)(F)F)cc3)C[C@@H](OCCCCO)O2)CC1	.	1%	1%	3%	.	.	-8%	.
Cc1cccc(NC(=O)Cc2noc3ccccc23)c1C	16%	-6%	2%	31%	0%	1%	42%[activator]	-0.6%
O=C(NNc1nc2cc3c(cc2s1)OCO3)c1ccc(F)cc1	9%	-11%	?	8%	7%	8%	21%	-1.3%
CCn1cc2nc(SCc3c(F)cccc3Cl)n(CCc3ccccc3)c(=O)c2n1	?	.	.	.	-18%	.	?	0.5%
Cc1ccccc1C(=O)c1cccn1CC(=O)N1CCCCCC1	7%	5%	9%	1%	5%	3%	11%	-4.1%
Cc1cc(NS(=O)(=O)c2ccc(NC(=O)/C=C/c3ccc(C)o3)cc2)nc(C)n1	-3%	2%	10%	-22%	.	2%	24%	.
CCc1cccc(C)c1NC(=O)CSc1nnc(CCCOc2ccc(Cl)cc2Cl)n1C	?	-3%	-21%	.	?	?	?	-5.5%
Cc1cccc(NC(=O)CNC(=O)CN2C(=O)NC(C)(CCC(C)C)C2=O)c1C (stereo not drawn)	6%	.	.	-5%	.	-29%[46.1 µM]	4%	.
COc1ccc(NC(=O)CCn2nc(-c3ccc(Cl)cc3)c3ccccc3c2=O)cc1	22%[46.1 µM]	.	.	.	4%	12%[46.1 µM]	-3%	-1.8%

# (listing goes on)
molecule	Lassa entry inh	SARS PLP yeast	NS1 inh	RE007 growth inh	Cruzain noTriton	MARV entry inh	2A StopGo	Cruzain Triton
CN1CCN(c2ccc([N+](=O)[O-])c(SCCO)c2)CC1	14%	0%	0%	1%	.	?	-4%	.
COc1ccc(-c2cc(NCc3ccc(F)cc3)n3cnnc3n2)cc1	-14%[46.1 µM]	.	.	.	7%	-13%[46.1 µM]	-9%	-2.9%
Cc1ccc(Cl)cc1NC(=O)COC(=O)C1CCCC1	3%	-2%	-15%	10%	3%	5%	-2%	3.6%
CSCC[C@H](N)C(=O)N1CCC(C(=O)N[C@H](C)C(=O)NC(C)c2ccccc2)CC1 (stereo partly drawn)	.	12%	-12%	12%	.	.	-13%	.
Oc1c(C(c2ccc(Cl)cc2Cl)N2CCN(c3ccccc3)CC2)sc2nc(-c3ccco3)nn12 (stereo not drawn)	-16%[46.1 µM]	.	.	.	?	.	-6%	-5.6%
CCn1c(SCC(=O)Nc2nc(C)c(C)s2)nnc1-c1cccs1	-2%	20%	-1%	-3%	-7%	-25%	-22%	-5.8%
O=C(CS(=O)(=O)Cc1ccccc1)NCCc1ccc(F)cc1	-6%[46.1 µM]	4%	-1%	-3%	.	0%[46.1 µM]	-3%	.
Cc1cnn(-c2nc(-c3ccccc3)cc(-c3ccccc3)n2)c1	-23%[46.1 µM]	-1%	1%	-8%	.	?	6%	.
COCCN(C(=O)COC(=O)Cc1c[nH]c2ccccc12)c1c(N)n(Cc2ccccc2)c(=O)[nH]c1=O	0%	12%	.	2%	.	-7%	-4%	.
Cc1csc2ncc(C(=O)Nc3ccon3)c(=O)n12	23%	-14%	-21%	-5%	-4%	25%	.	-17%
CC(C)c1cnc2c(c1SCC(=O)Nc1ccccc1C(F)(F)F)c(=O)n(C)c(=O)n2C	-5%[46.1 µM]	.	.	.	5%	.	-17%	1.3%
